NS1 inh = blocks influenza NS1 protein function; AID 2326; S. cerevisiae slowed by influenza A NS1, growth recovery by OD600; Potency, µM (titrated, usually from 46.1 µM), without a hit: at the highest dose activity, positive = more growth; 270,000 tested, 0.4% active; active means well fitted rising curve with a large enough effect; inconclusive means small, poorly fitted or top-dose-only effect; inactive means no such curve, though single readings can be large or run the other way; further: nearly all actives have a fitted effect of over 50% in size
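Recovery from NS1-induced slow growth read by OD600 in budding yeast switched to galactose assay medium (pH 6.0, -URA) at 1:100 dilution. Compound 23 nl per well; the matching strain lacking NS1 serves as control.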
SARS PLP yeast = SARS-CoV PLP inhibition in yeast; S. cerevisiae expressing SARS-CoV PLpro, growth rescue; control for the full effect not named in the record; Potency, µM (doses to about 32.9 µM), for inactives: at the highest dose activity, positive = growth rescue; 330,000 tested, 0.19% active; active means well fitted rising curve with a large enough effect; inconclusive means small, poorly fitted or top-dose-only effect; inactive means no such curve, though single readings can be large or run the other way; further: 0% is about no effect; nearly all actives have a fitted effect of over 55% in size; growth read by luminescence after 48 h
Cruzain Triton = blocks cruzain activity in presence of Triton detergent; P25779; purified cruzain, Z-FR-AMC fluorescence, 0.01% Triton; Potency, µM, inactives show max response, negative = inhibition, hits mostly inhibitors; 200,000 tested, 0.43% active; AID 1478;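 further: plate controls were neutral wells for no effect and buffer without enzyme for full effect; nearly all actives have a fitted effect of over 40% in size; top concentration of the series not given in the record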
Target sequence (P25779 123-467 limits assumed): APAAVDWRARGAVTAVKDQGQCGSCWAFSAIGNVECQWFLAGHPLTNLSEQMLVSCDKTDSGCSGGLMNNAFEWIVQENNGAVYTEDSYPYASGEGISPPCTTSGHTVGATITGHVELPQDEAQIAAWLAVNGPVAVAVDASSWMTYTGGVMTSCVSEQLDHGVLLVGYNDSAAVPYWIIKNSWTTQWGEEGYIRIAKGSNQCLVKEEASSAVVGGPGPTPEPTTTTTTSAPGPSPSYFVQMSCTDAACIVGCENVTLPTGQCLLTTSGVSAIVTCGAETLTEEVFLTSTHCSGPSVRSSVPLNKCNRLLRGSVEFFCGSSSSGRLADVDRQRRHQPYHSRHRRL
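Sodium acetate buffer (100 mM, pH 5.5) containing 5 mM DTT and 0.01% Triton X-100 hosted 1.5 nM cruzain and test compound for 15 min at room temperature. Cleavage of 2 uM Z-FR-AMC was then tracked by fluorescence.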
Lassa entry inh = blocks Lassa virus binding to or entry into cells. Lassa virus pseudotype entry inhibition, cell reporter; control for the full effect not named in the record. Potency, µM (doses to about 37.9 µM), for inactives: at the highest dose activity change, negative = inhibition, hits mostly inhibitors. 300,000 tested, 1.2% active; active means well fitted inhibition curve with a large enough effect; inconclusive means small, poorly fitted or top-dose-only effect, or effect the other way; inactive means flat fitted curve, though single readings scatter; tested in HEK293 cells; further: on the % scale 0 is the no-effect control and ±100 the full control effect; nearly all actives have a fitted effect of over 50% in size; luciferase read-out
2A StopGo = lowers the luciferase signal of an FMDV 2A StopGo reporter. human cells with a luciferase reporter of 2A StopGo recoding; control for the full effect not named in the record. Potency, µM (titrated, usually from 57.9 µM), without a hit: top-dose signal change, negative = less light. 410,000 tested, 1.2% active. AID 1159524; active = well fitted falling curve with a large enough effect; inconclusive = small, poorly fitted or top-dose-only effect; inactive = no such curve, though single readings can be large or run the other way; tested in HEK293T cells; further: on the % scale 0 is the no-effect control and ±100 the full control effect; nearly all actives have a fitted effect of over 45% in size; luciferase light after 4 h
Marburg entry inh = inhibitors of Marburg virus binding or cell entry | Marburg virus pseudotyped entry inhibition, cell reporter; control for the full effect not named in the record; about a third of the inactives were read at about 46 µM | Potency, µM (doses to about 37.8 µM), without a hit: top-dose activity change, negative = inhibition, actives largely listed as inhibitors | 300,000 tested, 1.8% active; active = well fitted inhibition curve with a large enough effect; inconclusive = small, poorly fitted or top-dose-only effect, or effect the other way; inactive = flat fitted curve, though single readings scatter; tested in HEK293 cells; about a fifth of its hits are not listed in these tables; further: on the % scale 0 is the no-effect control and ±100 the full control effect; luciferase read-out
Cruzain noTriton = inhibitors of Trypanosoma cruzi cruzain without detergent | purified cruzain, Z-FR-AMC fluorescence, no detergent | 200,000 tested, 2.3% active | Potency, µM, for inactives: max response, negative = inhibition, actives largely listed as inhibitors | P25779;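 further: plate controls were enzyme without inhibitor for no effect and buffer without enzyme for full effect; nearly all actives have a fitted effect of over 40% in size; top concentration of the series not given in the record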
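Purified cruzain at 1.5 nM, pre-incubated 15 min with compound at room temperature in 100 mM sodium acetate pH 5.5, 5 mM DTT, 0.00005% Triton X-100. Reaction started with 2 uM Z-FR-AMC; AMC fluorescence increase over 60 s gives rate.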
RE007 growth inh = less growth of the S. pombe RE007 Vpr strain | S. pombe RE007 Vpr strain, BacTiter-Glo ATP luminescence, 24 h; control for the full effect not named in the record | Potency, µM (doses to about 92.2 µM), for the others: top-dose activity change, negative = less growth | 360,000 tested, 0.21% active | AID 651644; active = well fitted falling curve with a large enough effect; inconclusive = small, poorly fitted or top-dose-only effect; inactive = no such curve, though single readings can be large or run the other way;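 further: on the % scale 0 is the no-effect control and ±100 the full control effect; nearly all actives have a fitted effect of over 50% in size; the assay follows cell death caused by Vpr and the record does not say whether a fall means rescue or toxicity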
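Fission yeast strain RE007, carrying one chromosomally integrated HIV-1 vpr copy, was seeded at OD 0.01 in PMG+AL medium with 23 nL pinned compound. After 24 h at 30 °C and 99% humidity, viability was read by BacTiter-Glo luminescence.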
* marks the source's active call; other numbers are inactive results; ? = inconclusive; · = no result given; & = joins results of further samples; [ ] = dose if it differs, or a comment. Unless noted, the call rests on the fitted dose curve; in most records, active means well fitted curve in the direction sought with a large enough effect; inconclusive means small, poorly fitted or top-dose-only effect, or another doubt; inactive means no such curve, though single readings can be large; an effect the other way counts as inactive or inconclusive. Potency means the concentration at half of the fitted maximal effect.

No.	smiles	Marburg entry inh	Lassa entry inh	NS1 inh	2A StopGo	SARS PLP yeast	Cruzain Triton	Cruzain noTriton	RE007 growth inh
1	CCN(CC)S(=O)(=O)N1CCC(C(=O)NCC2COc3ccccc3O2)CC1 (stereo unspecified)	5%	1%	-7%	-22%	-1%	-1.5%	16%	18%
2	CN1CCC(=O)N(CCOc2ccccc2)CC1	·	·	4%	-13%	-6%	·	·	-2%
3	Cc1cc(N)n(-c2nc3ccccc3s2)n1	-23%	4%	2%	?	0%	·	·	?
4	Cc1ccc(CSCc2ccc(C(=O)NCC3CCCO3)o2)cc1 (stereo unspecified)	?	-15%[46.1 µM]	·	-19%	1%	·	·	7%
5	CCOC(=O)C1=C(C)NC(C)=C(C(=O)OCC)C1/C=C/c1ccccc1	?	8%	-8%	-11%	-11%	-18%	?	12%
6	CCCCC(=O)Nc1ccc(NC(=O)c2ccccc2[N+](=O)[O-])cc1OC	16%	-18%	-11%	-15%	15%	-2.8%	5%	13%
7	O=C(NCCc1ccccn1)c1cc(-c2cccc3ccccc23)nc2ccccc12	·	·	19%	?	-18%	-4.2%	-11%	-10%
8	Cc1ccc(S(=O)(=O)NC(CC(C)C)C(=O)N2CCCC2)cc1 (stereo unspecified)	8%	-15%	12%	-16%	5%	·	·	4%
9	Cc1ccc(O)c(-c2cc(-c3ccc(F)cc3)no2)c1	·	·	-27%	34%[activator]	-3%	·	·	-21%
10	COc1cccc(OCc2cc(C(=O)NCc3ccccn3)no2)c1	?	-4%[46.1 µM]	2%	44%[activator]	-1%	·	·	-7%
11	COc1c(C)cc(S(=O)(=O)NCc2ccccn2)c(C)c1C	2%	11%	-3%	53%[activator]	?	·	·	19%
12	Cc1cc(C)n2nc3ccccc3c2n1	9%	-1%	-3%	·	-1%	0.4%	-1%	2%
13	Cc1ccc(S(=O)(=O)CCC(=O)OCC(=O)N2CCN(S(=O)(=O)c3ccccc3)CC2)cc1	0%	-12%	·	-21%	3%	·	·	7%
14	COc1ccc(C(=O)NCCc2cc3c(OC)ccc(OC)c3[nH]c2=O)cc1OC	-21%[46.1 µM]	?	·	-19%	-6%	·	·	1%
15	C=C1N(CCCCCC(=O)O)C(=O)OC12CCCCC2	-1%	-7%	-8%	2%	3%	4.6%	4%	3%
16	N[C@@H](Cc1cc(Br)c(O)c(Br)c1)C(=O)O	1%&1%&1%	9%	4%&-10%	·	3%	-1.3%&-1.9%	0%&1%	·
17	COc1ccc(Cc2noc(CN(C)CC3(N4CCOCC4)CCCCC3)n2)cc1OC	·	·	-1%	?	-3%	·	·	2%
18	CCCc1cc2c(cc1N(C)S(=O)(=O)c1ccccc1)OCO2	?	-15%[46.1 µM]	·	?	·	·	·	-7%
19	O=C1c2ccccc2C(=O)N1CCCCCc1nc(-c2ccccc2)no1	1%	-12%	-17%	?	-2%	-6.2%	5%	-4%
20	CCCOc1ccc(-c2nnc(-c3ccco3)o2)cc1	?	8.2µM*	-94%	?	11%	-6.4%	6%	?

Complete entries, quoted from the list. Values in the order: Marburg entry inh	Lassa entry inh	NS1 inh	2A StopGo	SARS PLP yeast	Cruzain Triton	Cruzain noTriton	RE007 growth inh
Profile of COc1ccc(Cc2noc(CN(C)CC3(N4CCOCC4)CCCCC3)n2)cc1OC = ·	·	-1%	?	-3%	·	·	2%
Profile of Cc1cc(N)n(-c2nc3ccccc3s2)n1 = -23%	4%	2%	?	0%	·	·	?
Profile of O=C1c2ccccc2C(=O)N1CCCCCc1nc(-c2ccccc2)no1 = 1%	-12%	-17%	?	-2%	-6.2%	5%	-4%

(next part)
No.	smiles	Marburg entry inh	Lassa entry inh	NS1 inh	2A StopGo	SARS PLP yeast	Cruzain Triton	Cruzain noTriton	RE007 growth inh
21	COc1ccc(NC(=O)c2cc(-c3ccc4c(c3)OCO4)on2)c(OC)c1	?	22%[46.1 µM]	·	-8%	·	-2.3%	-9%	·
22	CCCc1nnc(NC(=O)Cc2coc3ccc(C(C)C)cc23)s1	?	?	·	3%	·	-0.9%	-21%	·
23	O=C(CSc1nnc(C2CC2)n1Cc1ccccc1)c1ccc(S(=O)(=O)N2CCOCC2)cc1	?	-10%	15%	-22%	1%	6.0%	-1%	5%
24	CCC(C)NC(=O)c1ccc2c(c1)N(Cc1ccccc1F)C(=O)c1ccccc1S2=O (stereo unspecified)	12%[46.1 µM]	-3%[46.1 µM]	·	0%	·	0.8%	21%	·
25	O=C(C1CCCN1S(=O)(=O)c1cccc2nsnc12)N1CCN(c2ccccc2)CC1 (stereo unspecified)	·	·	-9%	-3%	1%	·	·	13%
26	O=C(NC1CCS(=O)(=O)C1)/C(=C/c1ccco1)NC(=O)c1ccccc1 (stereo unspecified)	14%	9%	-1%	-10%	-1%	·	·	-10%
27	CCOC(=O)c1c(NC(=O)c2ccc(N3C(=O)[C@@H]4[C@H](C3=O)[C@H]3C=C[C@@H]4C3)cc2)sc2c1CCCC2	·	·	4%	-5%	-24%	0.6%	4%	-4%
28	CC(=O)CSc1nc(-c2cccs2)c(C#N)c(=O)[nH]1	-7%[46.1 µM]	1%[46.1 µM]	1%	20%	-4%	·	·	-9%
29	CN1CCN(c2nc(N3CCN(c4ccccc4)CC3)ncc2F)CC1	?	-17%	2%	·	-4%	-3.3%	2%	13%
30	COc1ccc(C(=O)N/N=C2\SCC(=O)N2Cc2ccc3c(c2)OCO3)c(OC)c1	-1%	·	3%	-15%	-13%	-2.1%	0%	17%
31	Cc1ccc(N=c2c([N+](=O)[O-])nn(-c3ccccc3)n2O)c(C)c1	13%	-15%	-47%	7%	-5%	-6.6%	?	4%
32	COC(=O)C1=C(COc2ccccc2)NC(=O)NC1c1ccc(Br)cc1 (stereo unspecified)	-16%	-20%	6%	-28%	12%	-4.1%	-8%	9%
33	Nc1ccc(N2CCCC2)c(S(=O)(=O)Nc2cccc(C(F)(F)F)c2)c1	-22%	-2%	·	22%	-1%	·	·	-16%
34	O=C(NCCSCc1c(F)cccc1Cl)C1CCN(S(=O)(=O)Cc2ccccc2)CC1	2%[46.1 µM]	12%[46.1 µM]	·	-7%	·	-6.2%	4%	·
35	O=C(COc1ccccc1)N1CCN=C1SCc1ccc(F)cc1	0%[46.1 µM]	·	-50%	-4%	0%	·	·	-9%
36	Cn1c(=O)c2c(nc(N3CCc4ccccc4C3)n2Cc2ccccc2F)n(C)c1=O	-9%	-14%	-102%	-26%	-17%	-6.6%	26%	5%
37	COc1cc2c3c(c1OC)C1(C=CC(=O)C=C1)CC3N(C(=O)CCC(=O)O)CC2 (stereo unspecified)	·	·	-2%	-21%	1%	·	·	-5%
38	O=C(NCc1ccccc1)c1ccc(Cn2cc(C(F)(F)F)ccc2=O)cc1	?	3%	?	-12%	2%	0.8%	-2%	16%
39	COc1ccc(C2C(C(=O)Nc3ccccc3)=C(C)Nc3nc(-c4ccccc4)nn32)cc1OC (stereo unspecified)	-2%[46.1 µM]	-16%[46.1 µM]	·	-16%	·	0.0%	3%	·
40	CC(NC(=S)NCCc1ccccc1)C(c1cccs1)N1CCN(C)CC1 (stereo unspecified)	?	-17%	16%	-16%	-7%	0.5%	?	5%
41	O=C1CC(c2ccc(Cl)cc2)N=C(NC(=O)c2ccccc2)N1 (stereo unspecified)	·	-17%[46.1 µM]	·	-22%	·	-0.1%	1%	·
42	Cc1ccc(NC(=S)N2CCCCCC2)c(C)c1	?	?	0%	31%[activator]	4%	·	·	-3%
43	CCOC(=O)c1ccc2ncc(C(=O)OCC)c(NCc3ccco3)c2c1	-9%	-26%	-26%	?	2%	-5.4%	13%	-3%
44	CCOC(=O)C(=CNCC(=O)O)C(=O)OCC	1%	-1%	23%	·	6%	5.7%	8%	7%
45	Cc1ccc(S(=O)(=O)Nc2cccc(-n3cnnn3)c2)cc1	·	·	0%	7%	?	·	·	0%
46	CC(C)CCn1c(=O)c(C(=O)N/N=C/c2cccc(F)c2)c(O)c2ccccc21	?	1%	3%	-14%	5%	-5.6%	?	0%
47	COc1cc(NC(=O)CN2c3ccccc3CC2C)cc(OC)c1OC (stereo unspecified)	?	-10%	-2%	-19%	6%	-1.2%	2%	3%
48	O=C(NC1CCCC1)c1ccc2nc(-c3ccco3)c(-c3ccco3)nc2c1	?	-21%	9%	0%	1%	14µM*	5µM*	-13%
49	O=C(NCC(c1ccco1)N1CCCC1)c1cn(-c2ccccc2)nc1-c1ccc(F)cc1 (stereo unspecified)	?	?	·	-5%	3%	·	·	3%
50	COc1ccc(NC(=O)c2cccnc2)cc1OCC(C)C	-2%[46.1 µM]	-13%[46.1 µM]	-8%	-5%	-2%	·	·	-16%
51	Cc1cccc2nc(CSc3ccccc3C(=O)O)cn12	?	?	15%	30%	26%	-2.4%	16%	-3%
52	CC(C)(C)c1ccc(Oc2nc3ccccn3c(=O)c2/C=C(\C#N)c2nc3ccccc3s2)cc1	0%[46.1 µM]	0%[46.1 µM]	·	-8%	·	-3.5%	12%	·
53	CCc1ccc(C(=O)NC(=S)Nc2ccc3c(c2)OCCO3)cc1	-27%	?	17%	-2%	-9%	-4.7%	22%	-6%
54	CC(C)(C)c1cc(C(=O)N2CCc3ccccc32)ccn1	?	0%	-3%	-21%	1%	-6.6%	-12%	30%
55	O=C(Cc1ccccc1)N/N=C/c1ccc(S(=O)(=O)O)o1	·	·	3%	-16%	1%	·	·	7%
56	COc1ccccc1C(=O)Nc1ccc(S(=O)(=O)Nc2cnc3ccccc3n2)cc1	-1%	-12%	0%	42%[activator]	-1%	·	·	-12%
57	CCOc1ccc(C(C(=O)NCC2CCCO2)N(C(=O)c2snc(C(N)=O)c2N)c2ccc3c(c2)OCCO3)cc1 (stereo unspecified)	?	?	-10%	-10%	1%	·	·	0%

Source: PubChem BioAssay
